Autofluor counter = flagged as autofluorescent in microsphere protease counterscreen | 360,000 tested, 3.1% active | AID 624483 | fluorescence intensity (test concentration not listed) | compound autofluorescence counterscreen, microsphere flow cytometry; stronger effect = higher value;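 active = at least 3 SD above the mean of all compounds, about 16000 in these data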;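 also: 100 nL of 1 mM stock went into each well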
ugtP null kill = growth inhibition of S. aureus ugtP deletion strain. S. aureus RN4220 ugtP deletion, OD600 growth, 16 h; some inactives read as strong as hits. growth inhibition, % (concentration not given with the values). 330,000 tested, 0.54% active. AID 1259309;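 active = z-score under -3 and OD600 up to 0.15 on both plates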;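 also: plate controls were untreated wells for no effect and antibiotic for full effect; wells of about 80 µL received 100 nL stock; the first replicate is given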
BJeLR viability = BJeLR cell viability loss; inhibition, % (no concentration beside the values); AID 1554; 300,000 tested, 0.17% active; BJeLR (HRASV12) viability, CellTiter-Glo ATP luminescence, 48 h; reference of the scale not given here;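 active = replicate mean above 50%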;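 also: 50 nL library stock added to about 25 µL; numbers are from one replicate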
Sa RN4220 lethal = kills Staphylococcus aureus RN4220; 330,000 tested, 0.33% active; AID 1259311; S. aureus RN4220 growth, OD600, 16 h; inhibition, % (test concentration not listed);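 active = z-score of -3 or lower and OD600 up to 0.18 on both plates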;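 also: plate controls were untreated cells for no effect and reference antibiotic for full effect; stock transfer was 100 nL into about 80 µL; one replicate is shown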
Mtb hypoxia inh = reduces hypoxia-regulated biosensor signal in M. tuberculosis; M. tuberculosis hypoxia-regulated fluorescent reporter, fluorescence; fluorescence inhibition, % (concentration not given with the values); 300,000 tested, 0.1% active;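 active = 35 to 45% if threefold the growth effect, above 45% if 1.5-fold the growth effect; inactive = the rest, general growth blockers included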;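 also: wells of about 50 µL received 100 nL stock; 0% = vehicle wells and 100% = reference inhibitor wells; whole bacteria with a GFP reporter of the hypoxia response; strong numbers were not always called active; many hits fall short of the cut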
PrP 5UTR inh = inhibition of PrP 5' UTR reporter expression; cell-based PrP 5' UTR mRNA reporter, plate reader; inhibition, % (test concentration not listed); 340,000 tested, 0.35% active;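 active = every replicate at 50% or more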;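 also: 0 = median of the neutral control wells; tested in H4 reporter cells; numbers are from one replicate; inactives centre near -14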
Mtb hypoxia inh growth = second read-out of Mtb hypoxia inh, no call of its own (marks repeat the call); growth inhibition, %; measured here: M. tuberculosis growth (absorbance);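 0% = vehicle and 100% = reference antibiotic; read after six days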
Starred values were filed as active, the others as inactive; i = inactive; nt = no result given.

Compound | Autofluor counter | ugtP null kill | BJeLR viability | Sa RN4220 lethal | Mtb hypoxia inh | Mtb hypoxia inh growth | PrP 5UTR inh
O=C(NNC(=O)C1CCN(C(=O)Nc2ccccc2)CC1)c1ccc(F)cc1 | 3959 | 0 | nt | -1.2 | 2 | 1 | -15
COCCCNC(=O)c1sc2ncnc(N3CCc4ccccc4C3)c2c1C | 7899 | 10 | -17 | 7.4 | -3 | -2 | -47
c1ccc(C[n+]2csc3ccccc32)cc1 | 7813 | 77 | 8 | 5.8 | 5 | -3 | -13
CCOC(=O)C1CCCN(C(=O)c2cc(-c3ccco3)nc3ccccc23)C1 (configuration not stated) | 3453 | 0 | nt | 2.9 | 5 | 12 | -16
S=c1[nH]nc(-c2ccco2)n1/N=C/c1ccc(Br)s1 | 10509 | nt | 7 | nt | nt | nt | -22
COCCN(CCOC)C(=O)N1CCOCC1 | 3821 | 16 | -3 | 0.3 | 16 | -5 | 0
COc1ccc2oc(C(=O)OCC(=O)NC3CCCC3)c(C)c2c1 | nt | 10 | 5 | 4.2 | 3 | -3 | -18
Cc1ccc2cc(C=C(C#N)C#N)c(Cl)nc2c1 | 2468 | 0 | -6 | -1.3 | 11 | 4 | -14
COc1cccc(C2c3c(oc4ccc(F)cc4c3=O)C(=O)N2CCCN2CCOCC2)c1 (configuration not stated) | 5757 | 5 | 4 | 4.4 | nt | nt | -9
C(=N\N=C\c1cccs1)/c1cccs1 | 4172 | nt | 7 | nt | nt | nt | -92
CCCCc1ccc(NC(=O)COCC)cc1 | 4614 | 1 | -2 | -1.6 | nt | nt | -14
CCOC(=O)c1c(CN(C)C)n(C)c2ccc(OC(C)=O)cc12 | 2859 | -1 | -2 | 4.3 | 5 | 3 | -3
CCCCN(C)S(=O)(=O)c1c(C)[nH]c(=O)[nH]c1=O | 7402 | -4 | -7 | 4.5 | 10 | 4 | -20
Cc1cc(C)c(NC(=O)Nc2ccccc2)c(Cl)c1 | 2356 | 4 | 3 | 3.6 | -13 | -13 | -5
CCN(Cc1ccncc1)Cc1c(O)ccc2cc(Br)ccc12 | 3288 | -2 | 5 | -1.1 | -5 | -3 | nt
Cc1ccnc(NS(=O)(=O)c2ccc(C(C)(C)C)cc2)c1 | nt | 1 | 1 | -1.4 | -25 | -8 | nt
CNc1nc(N)nc(-c2cc(Cl)ccc2OC)n1 | 4215 | nt | 1 | nt | nt | nt | 28
CCOC(=O)c1sc(N(C)C)nc1-c1ccccc1 | 4900 | 1 | 8 | 3.8 | nt | nt | 2
COc1cc(/C=N/NC(=O)c2nnn(-c3nonc3N)c2C(C)C)ccc1OCc1ccc(F)cc1 | 4290 | nt | -3 | nt | nt | nt | -74
FC(F)(F)c1cc(C(F)(F)F)c2ccc(N3CCN(c4ncccn4)CC3)nc2n1 | 23511* | 8 | -10 | 3.1 | -3 | 3 | -13
CN(CC1CCCO1)S(=O)(=O)c1ccc(C(=O)Nc2nc(-c3ccccn3)cs2)cc1 (configuration not stated) | 4477 | -15 | nt | -4.7 | 2 | 19 | 14
Cc1cc(C)nc(NC(=O)CCCC(=O)O)c1 | 3692 | -1 | 8 | -4.4 | 14 | 12 | -18
O=C(NCCCn1ccnc1)c1cc(-c2cccc(O)c2)on1 | 3591 | 6 | 5 | 2.1 | -1 | 1 | -9
Cc1ccccc1NC(=O)c1ocnc1C | 5817 | -2 | 5 | -8.7 | 6 | 7 | -26
O=C(Nc1cccc(Br)c1)/C(=C\c1cccnc1)NC(=O)c1ccco1 | 6507 | 4 | -9 | 4.6 | 7 | -3 | -2
O=C(O)CCc1ccccc1OC(=O)c1ccccc1 | 3475 | 1 | 7 | 1.9 | -14 | -2 | -21
COc1ccc(NC(=O)c2cccnc2)c(OC)c1 | 20616* | 4 | 3 | 1.8 | 5 | 3 | -3
Cc1cc2ncc(-c3ncc(C(F)(F)F)cc3Cl)cn2n1 | 9547 | 7 | -3 | 1.7 | 5 | -9 | 42
Cc1cc(C)c(C)c(S(=O)(=O)NC(C)C(=O)O)c1C (configuration not stated) | 3578 | 1 | -4 | -0.1 | 1 | 6 | -19
O=C(O)C1CCCN1C(=O)c1cncc(Br)c1 (configuration not stated) | 10813 | 1 | -1 | -4.3 | -3 | 11 | -9
CN(c1ccccc1)S(=O)(=O)c1cc(C(=O)Nc2ccccc2N2CCOCC2)ccc1Cl | 3898 | -4 | nt | 3.5 | 7 | 11 | -8
CC(C)(O)C#Cc1ccc(CN2CCN(Cc3ccsc3)C(CCO)C2)s1 (configuration not stated) | 2737 | 4 | -9 | 3.0 | 13 | 3 | -14
C=CCn1c(SCC(=O)c2[nH]c(C)c(C(=O)OC)c2C)nc2scc(-c3ccc(OC)c(OC)c3)c2c1=O | 2004 | -4 | 11 | 8.1 | -1 | 9 | 30
O=C(O)CCCC(=O)Nc1cccc2cccnc12 | 3619 | 1 | -5 | 2.2 | 4 | 5 | -21
O=C(CN(Cc1ccco1)C(=O)CNS(=O)(=O)c1ccc(Cl)cc1)NCc1ccc(F)cc1 | 3564 | -1 | -3 | 5.5 | nt | nt | -25
CC(CCC1CC(C)(C)OC1=O)=NNC(N)=S (configuration not stated) | nt | -1 | nt | 3.0 | -13 | 5 | nt
CCOC(=O)N1CCN(S(=O)(=O)c2cc([N+](=O)[O-])c(C)cc2C)CC1 | 4467 | -1 | 5 | 2.8 | 5 | 5 | -17
CCc1ccc(C(=O)NNc2ccc(S(N)(=O)=O)cc2)cc1 | 3195 | 12 | 1 | 3.5 | 3 | 3 | -25
CC1(C)C2CCC(C2)C1(C)N=C1OC(CCl)CS1 (configuration not stated) | 4371 | 16 | 6 | 8.4 | -3 | 9 | 18
CCn1c(N=Cc2c[nH]c3ccccc23)nc2ccccc21 | nt | -3 | nt | 3.5 | 7 | 15 | nt
C=CCNC(=S)NN=C1CCC(c2ccccc2)CC1 (configuration not stated) | 6364 | 3 | 5 | -2.1 | 5 | 3 | -28
CCOC(=O)COc1ccccc1C(=O)c1cnn(-c2ccccc2)c1 | 3282 | 1 | -2 | -0.8 | 11 | -5 | -12
COc1ccc(-n2ncc3c2CC(C)(C)CC3NC(=O)c2c(C)cc(=O)oc2C)cc1 (configuration not stated) | 4398 | 12 | 0 | 5.2 | 3 | 2 | 1
CCc1ccccc1N1CC(C(=O)Nc2cc(S(=O)(=O)N3CCCC3)ccc2Cl)CC1=O (configuration not stated) | 9082 | 5 | nt | 4.9 | 2 | 1 | -20
Cc1ccc(C=NNc2ccc3ccccc3n2)o1 | nt | 12 | nt | 2.3 | 7 | 0 | nt
CC(C)(C)OC(=O)NC(CCCCNC(=O)OCc1ccccc1)c1nnc(C(CCCCNC(=O)OCc2ccccc2)NC(=O)OC(C)(C)C)o1 (configuration not stated) | nt | 4 | nt | 2.7 | 10 | 2 | nt
CN(CC(=O)Nc1ccccc1C(F)(F)F)C(=O)CSc1nc(N)cc(N)n1 | 8110 | -1 | nt | 1.9 | 0 | -2 | -38
Cc1ccsc1C(=O)NC(C)c1ccc2c(c1)OCO2 (configuration not stated) | 22863* | -13 | 4 | 11 | 7 | 13 | 24
NC(=O)C1CCCN(C(=O)c2cccc(S(=O)(=O)N3CCCCCC3)c2)C1 (configuration not stated) | 3715 | 3 | nt | 3.9 | 1 | 1 | -14
O=C(O)C(S)C(S)C(=O)O (configuration not stated) | 4200 | nt | 8 | nt | nt | nt | -5
CC(=O)NN=Cc1ccccc1OC/C=C/c1ccccc1 | nt | 3 | nt | 19 | 6 | -16 | nt
O=C(COC(=O)c1n[nH]c(=O)c2ccccc12)NCc1ccccc1 | 6306 | 3 | nt | 2.9 | -1 | 1 | -14
CN1CCN(C(=O)c2ccc(Cn3cc(Cl)cn3)o2)CC1 | 5351 | 0 | 14 | 2.1 | 9 | 6 | -13
Cn1c(=NC(=O)COc2ccccc2)sc2cccc(F)c21 | 5294 | 6 | -9 | 7.0 | 9 | 4 | -62
CCOc1ccc(C(c2c(NC(=O)c3ccccc3)sc(C)c2C)N2CCN(CCO)CC2)cc1 (configuration not stated) | 2199 | -19 | 1 | 4.1 | 7 | 6 | -7
CCOc1cc(C=NNC(=O)c2cccs2)cc([N+](=O)[O-])c1O | nt | 11 | nt | 5.0 | 22 | 8 | nt

The list continues:
Compound | Autofluor counter | ugtP null kill | BJeLR viability | Sa RN4220 lethal | Mtb hypoxia inh | Mtb hypoxia inh growth | PrP 5UTR inh
CCn1c2ccccc2c2nnc(SCC(=O)c3ccccc3)nc21 | 8467 | 2 | 7 | 7.6 | 5 | 9 | -18
CC(Oc1ccccc1)C(=O)N(CCC1=CCCCC1)c1c(N)n(Cc2ccccc2)c(=O)[nH]c1=O (configuration not stated) | 4411 | -7 | -8 | -3.2 | -4 | -4 | 12
Clc1ccc(-n2ncc3c(NCc4cccnc4)ncnc32)cc1Cl | 5471 | -6 | 4 | -1.9 | -11 | -4 | -109
Cc1ccccc1-c1noc(-c2ccccc2C(=O)N2CCCC2)n1 | 2444 | -5 | -6 | -0.1 | nt | nt | -31
Cc1ccc(SCc2c(C(=O)NN=Cc3ccc4c(c3)OCO4)nnn2-c2nonc2N)cc1 | nt | -1 | nt | 1.4 | 1 | -4 | nt
O=c1sc(N2CCN(c3ccc(F)cc3)CC2)nc2ccsc12 | 5931 | -6 | -5 | -8.9 | 3 | 8 | -40
COc1ccc(CCC(C)Nc2ccc(F)c(F)c2)cc1 (configuration not stated) | 2420 | 21 | -2 | 2.5 | 7 | -8 | -11
C=CCC1(Cl)C(=O)C(Cl)=C(N2CCN(C)CC2)C1(OC)OC (configuration not stated) | 3552 | 7 | -4 | 4.8 | 2 | 4 | -21

The list goes on (two carried over from the part before).
Compound | Autofluor counter | ugtP null kill | BJeLR viability | Sa RN4220 lethal | Mtb hypoxia inh | Mtb hypoxia inh growth | PrP 5UTR inh
COc1ccc(CCC(C)Nc2ccc(F)c(F)c2)cc1 (configuration not stated) | 2420 | 21 | -2 | 2.5 | 7 | -8 | -11
C=CCC1(Cl)C(=O)C(Cl)=C(N2CCN(C)CC2)C1(OC)OC (configuration not stated) | 3552 | 7 | -4 | 4.8 | 2 | 4 | -21
CCN(CC)C1=CC2=CC(=C(C#N)C#N)CCC2CC1 (configuration not stated) | 39639* | -2 | nt | 4.7 | i | 4 | -12
CCOC(=O)C(NS(=O)(=O)c1ccccc1)(C(F)(F)F)P(=O)(OC(C)C)OC(C)C (configuration not stated) | 2989 | 2 | 4 | 15 | 7 | 12 | -19
CC(C)(C)NC(=O)Cn1nnc(-c2ccc(S(C)(=O)=O)cc2)n1 | 4306 | 7 | 10 | 2.5 | 3 | -1 | -18
O=C1/C(=C/C=C/c2ccco2)SC(=S)N1c1ccc(O)cc1 | 3787 | 4 | 10 | 3.9 | 6 | 2 | -39
CCCN(CC(=O)Nc1ccccc1C)C(=O)c1ccc(NC2CC2)c([N+](=O)[O-])c1 | 4791 | 7 | -5 | -0.7 | 12 | 4 | -26
COc1ccccc1N(C)S(=O)(=O)c1ccc(Cl)c(C(=O)NCCCN2CCOCC2)c1 | 5806 | -4 | -9 | -1.4 | -12 | 6 | -4
O=C(NS(=O)(=O)NC1CCCCC1)C1=C(N2CCCC2)COC1=O | 3867 | 4 | nt | 4.4 | -3 | 0 | -3
Cc1cccn2cc(COc3cccc([N+](=O)[O-])c3)nc12 | 4478 | 5 | 7 | 6.6 | 16 | 5 | -26
C/C(Cl)=C/Cn1c(N2CCCC2)nc2c1c(=O)n(C)c(=O)n2C | 3492 | 10 | nt | 3.5 | nt | nt | -16
O=C(CN1CCN(Cc2ccc(Cl)cc2)CC1)NN=Cc1c[nH]c2ccccc12 | nt | 3 | nt | 5.0 | -2 | 8 | nt
Cc1ccc(C)c(C2=NNC(=O)CC2)c1 | 5700 | 2 | 5 | 5.3 | -8 | 8 | 10
COc1cccc(N=Nc2ccc3ccccc3c2O)c1 | 2860 | -4 | 16 | -4.4 | 5 | 3 | -2
CCOC(=O)c1[nH]c(CO)c(C(=O)OCC)c1C | 3210 | 14 | 10 | 2.3 | 5 | -4 | 8
O=[N+]([O-])c1ccc(/C=C/c2ccc3cccc([N+](=O)[O-])c3n2)cc1 | 2637 | 10 | -2 | 5.1 | 12 | -6 | -25
N#CCSc1nc2ccccc2o1 | 6090 | 4 | -5 | 6.5 | -11 | -2 | -20

From PubChem
